PINK1 expr mod = changes PINK1 expression. PINK1 immunofluorescence, high-content cytometry, 24 h. Potency, µM (highest dose often 76.6 µM), without a hit: at the top dose activation (PINK1 increase), most hits filed as activators. 410,000 compounds, 0.2% hits; active = well fitted activation curve with a large enough effect; inconclusive = small, poorly fitted or top-dose-only effect; inactive = flat fitted curve, though single readings scatter; cell line not stated here;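 note: potency is the fitted concentration of half-maximal effect; % of control where 0% means no effect; nearly all actives have a fitted effect of over 65% in size; a mitochondrial uncoupler was the plate control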
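Measures PINK1 amount and localization on or inside mitochondria by immunofluorescence. Stable cells get compounds at 5 concentrations for 24 hours before fixation and staining; CCCP controls included.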
TRPML1 ag = agonists of human TRPML1 channel; Q9GZU1; TRPML1-expressing cells, Ca2+ dye fluorescence, FDSS; host cell line not named in the record; reference of the full effect not given here; activation, % (no concentration beside the values); 410,000 compounds, 0.12% hits; in the data active = activation above about 50%; inconclusive = about 30% to 50%; inactive = below about 30%; note: 0% is about no effect; the text of the record puts the active cut at 80%
Target sequence (Q9GZU1 whole entry, looked up): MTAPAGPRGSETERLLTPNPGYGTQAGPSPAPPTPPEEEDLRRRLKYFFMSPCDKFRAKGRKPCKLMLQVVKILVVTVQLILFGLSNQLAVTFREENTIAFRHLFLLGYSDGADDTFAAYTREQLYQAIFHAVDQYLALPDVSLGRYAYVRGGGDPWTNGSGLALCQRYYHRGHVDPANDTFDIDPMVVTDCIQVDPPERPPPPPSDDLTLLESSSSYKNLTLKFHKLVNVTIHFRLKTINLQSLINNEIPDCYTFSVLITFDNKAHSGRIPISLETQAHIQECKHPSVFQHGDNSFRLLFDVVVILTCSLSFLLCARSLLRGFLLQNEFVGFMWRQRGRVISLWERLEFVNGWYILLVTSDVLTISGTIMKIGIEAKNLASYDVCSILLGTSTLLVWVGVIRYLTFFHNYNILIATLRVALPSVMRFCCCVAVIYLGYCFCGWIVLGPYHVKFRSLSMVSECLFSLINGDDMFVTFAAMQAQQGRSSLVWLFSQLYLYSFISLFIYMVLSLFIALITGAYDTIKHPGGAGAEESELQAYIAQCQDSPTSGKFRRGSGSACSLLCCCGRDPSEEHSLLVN
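Tet-induced TRPML1-DL cells, 1,500 per well, cultured overnight, were loaded with a no-wash Ca2+ dye for 45–90 min. Calcium fluorescence was recorded on the FDSS for 110 s after compound addition, before the EC80 agonist (4 uM 54-4) was added.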
TRPML1 blocker = blocks the human TRPML1 channel; TRPML1-inducible cells, Ca2+ dye fluorescence, FDSS; stronger effect = lower value; inhibition of EC80 agonist-evoked calcium signal; activity change, negative = inhibition, % (concentration not given with the values); AID 624415; 390,000 compounds, 0.02% hits; Q9GZU1; in the data active means activity change below about -50%; inconclusive means about -30% to -50%; inactive means above about -30%;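 note: stimulus is agonist 54-4 at its EC80 concentration; % is set by controls: 0 for no effect and ±100 for the full control effect; the text of the record puts the active cut at -80%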
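TRPML1-DL cells, Tet-induced overnight (~16 h, 37 °C) at 1,500 cells/well, were loaded with Ca8 no-wash dye plus quencher for 45-90 min at room temperature. Compounds were pinned during FDSS kinetic reading; agonist 54-4 at EC80 (4 uM final) then added.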
CtBP-E1A blk = inhibitors of CtBP/E1A interaction | AlphaScreen GST-E1A/His-CtBP binding, 1536-well; stronger effect = lower value; control for the full effect not named in the record | activity change, % (concentration not given with the values) | 340,000 compounds, 0.49% hits | AID 651724; in the data active means activity change below about -65%; inconclusive means about -30% to -65%; inactive means above about -30%; note: % is set by controls: 0 for no effect and ±100 for the full control effect
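Homogeneous bead-based format: GST-tagged E1A captured on glutathione donor beads, His-tagged CtBP on nickel acceptor beads; compounds precede bead addition by 2 h at 37 °C.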
D2 agonist = activates the human D2 dopamine receptor. P14416. DiscoveRx PathHunter D2 beta-arrestin, luminescence, 90 min; 100% = 57 uM dopamine signal. activation, % (concentration not given with the values). 360,000 compounds, 0.084% hits; in the data active = activation above about 40%; inconclusive = about 15% to 40%; inactive = below about 15%; note: the text of the record calls up to 30% inactive
Target sequence (P14416 whole entry, looked up): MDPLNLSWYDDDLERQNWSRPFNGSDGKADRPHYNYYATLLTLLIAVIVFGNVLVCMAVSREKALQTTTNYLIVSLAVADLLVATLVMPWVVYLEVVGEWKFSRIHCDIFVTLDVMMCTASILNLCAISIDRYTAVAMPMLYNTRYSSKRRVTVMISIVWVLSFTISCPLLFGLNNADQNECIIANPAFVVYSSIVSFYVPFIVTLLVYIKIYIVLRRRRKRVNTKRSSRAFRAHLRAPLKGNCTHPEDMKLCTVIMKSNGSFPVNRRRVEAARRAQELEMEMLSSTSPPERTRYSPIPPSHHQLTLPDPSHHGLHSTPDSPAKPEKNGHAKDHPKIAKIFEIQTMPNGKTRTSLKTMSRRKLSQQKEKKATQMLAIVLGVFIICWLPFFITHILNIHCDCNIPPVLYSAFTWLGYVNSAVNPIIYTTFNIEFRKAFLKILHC
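Agonist mode: compounds alone added to overnight-plated D2 PathHunter cells for 90 min at 37 C, with 57 uM final dopamine (EC100) defining full response. Beta-arrestin recruitment detected by chemiluminescent reagent, read after 1 h at ambient temperature.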
Six1-Eya2 inh = blocks human Six1 binding to Eya2; Q15475+O00167; AlphaScreen GST-Six1/His-Eya2 binding, biochemical; stronger effect = lower value; control for the full effect not named in the record; activity change, % (test concentration not listed); 360,000 compounds, 0.56% hits; in the data active = activity change below about -65%; inconclusive = about -30% to -65%; inactive = above about -30%; note: % is set by controls: 0 for no effect and ±100 for the full control effect
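Homogeneous AlphaScreen proximity assay pairing GST-Six1 with His-tagged Eya2 (added as 5X mix: 250 nM and 500 nM) in 50 mM Tris pH 8.0, 300 mM NaCl, 1 mM TCEP. Glutathione donor and nickel acceptor beads; 1 h, 37 °C, dark.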
Active calls of the source: *; & = joins results of further samples; [ ] = dose if it differs, or a comment.

CC(C)(C)c1ccc(C(=O)CSc2n[nH]c(=O)[nH]c2=O)cc1 was read as PINK1 expr mod 2.0%, TRPML1 ag -0.4, TRPML1 blocker -14, CtBP-E1A blk -4, D2 agonist -2.7 and Six1-Eya2 inh -3.
S=C(NCCc1ccccc1)Nc1nccs1 was read as PINK1 expr mod 3.9%, TRPML1 ag -0.2, TRPML1 blocker -13, CtBP-E1A blk -2, D2 agonist -3.0 and Six1-Eya2 inh 0.
`Cc1c(C(c2cc(O)ccc2Cl)c2c(C)n(C)n(-c3ccccc3)c2=O)c(=O)n(-c2ccccc2)n1C` gave PINK1 expr mod 0.3%, TRPML1 ag 0.4, TRPML1 blocker 26, CtBP-E1A blk 3, D2 agonist 0.2 and Six1-Eya2 inh 14.
Screening O=C(CCn1cnc2ccccc2c1=O)NCc1ccccc1Cl returned PINK1 expr mod -0.3%, TRPML1 ag -0.5 and TRPML1 blocker 5.
`O=C(c1ccccc1)N1CCC(CC2CC(c3ccc(Cl)cc3)=NO2)(C(=O)NCC2CCCCC2)CC1` (centres undefined) gave PINK1 expr mod -0.8%, TRPML1 ag 0.0, TRPML1 blocker 2, CtBP-E1A blk 1, D2 agonist -2.4 and Six1-Eya2 inh 0.
Screening O=C(Nc1ccc(-c2nc3ccccc3[nH]2)cc1)c1ccco1 returned PINK1 expr mod 0.1%, TRPML1 ag 0.5&-0.2, TRPML1 blocker -1, CtBP-E1A blk 9, D2 agonist 6.9 and Six1-Eya2 inh -18.
Screening COc1ccc(S(=O)(=O)N2CCOCC2)cc1NC(=O)COC(=O)CC1CC2CCC1C2 (centres undefined) returned PINK1 expr mod -3.1%, TRPML1 ag 1.2, TRPML1 blocker 18, CtBP-E1A blk -1, D2 agonist -2.8 and Six1-Eya2 inh 2.
CCOc1ccc(N2CC(C(=O)NCc3ccccc3)CC2=O)cc1 (centres undefined) was read as PINK1 expr mod -1.2%, TRPML1 ag -0.3, TRPML1 blocker 1, CtBP-E1A blk -9, D2 agonist 4.3 and Six1-Eya2 inh 3.
For COc1ccc(-n2ncc3c(NCc4cccnc4)ncnc32)cc1 the results were PINK1 expr mod 2.3%, CtBP-E1A blk 0, D2 agonist 8.9 and Six1-Eya2 inh 13.
For CC(C)Cn1c(-c2cccnc2)nc2c1c(=O)[nH]c(=O)n2CC(C)C the results were PINK1 expr mod -1.5%, TRPML1 ag -0.6, TRPML1 blocker -21, CtBP-E1A blk -1, D2 agonist 2.6 and Six1-Eya2 inh 4.
`CC12CCC(=O)C=C1CCCC2=O` (centres undefined) gave PINK1 expr mod 0.3%, TRPML1 ag -0.1, TRPML1 blocker -3, CtBP-E1A blk 0, D2 agonist -2.5 and Six1-Eya2 inh inconclusive.
Cn1c(SCC(=O)c2ccc3c(c2)OCCO3)nnc1C(F)(F)F was read as PINK1 expr mod -0.1%, TRPML1 ag 0.8, TRPML1 blocker 28, D2 agonist -2.6 and Six1-Eya2 inh 0.
For O=C(COC(=O)c1ccc(S(=O)(=O)N2CCOCC2)cc1)NCc1cccs1 the results were PINK1 expr mod 0.3%, TRPML1 ag -0.3, TRPML1 blocker 1, CtBP-E1A blk -1, D2 agonist -1.3 and Six1-Eya2 inh 7.
CC1(C)CC(=O)C2=C(C1)N(Cc1ccco1)C(=O)C2(O)C(F)(F)F (centres undefined) was read as PINK1 expr mod -1.5%, TRPML1 ag 1.0, TRPML1 blocker 36, CtBP-E1A blk -1, D2 agonist -1.8 and Six1-Eya2 inh 5.
`O=C(NCCc1c[nH]c2ccccc12)C(=O)NCC1OCCN1S(=O)(=O)c1cc(F)ccc1F` (centres undefined) gave PINK1 expr mod -1.1%, TRPML1 ag 0.0, TRPML1 blocker -12, D2 agonist 0.3 and Six1-Eya2 inh -18.
For OC[C@@H]1CN(Cc2ccc3c(c2)OCO3)C[C@H](n2cnc3c(NC4CCC4)ncnc32)O1 the results were PINK1 expr mod 1.2%, TRPML1 ag -0.5, CtBP-E1A blk -2, D2 agonist 9.3 and Six1-Eya2 inh 1.
CCOC(=O)c1ccc(NC(=O)Nc2ccc(OC)c(OC)c2)cc1 was read as PINK1 expr mod -0.3%, TRPML1 ag 3.2, TRPML1 blocker -15, CtBP-E1A blk -11, D2 agonist 0.5 and Six1-Eya2 inh -13.
For O=c1cc[nH]c2cc(Cl)ccc12 the results were PINK1 expr mod -0.6%, TRPML1 ag -0.3, TRPML1 blocker 30, CtBP-E1A blk 10, D2 agonist 0.2 and Six1-Eya2 inh 0.
`CC(=O)c1ccc(OCc2ncc(C(F)(F)F)cc2Cl)cc1` gave PINK1 expr mod -2.6%, TRPML1 ag 0.2, TRPML1 blocker 12, CtBP-E1A blk 10, D2 agonist -3.2 and Six1-Eya2 inh 4.
`O=C(NCc1ccc(Cl)cc1)N1CCN(Cc2ccccc2)CC1` gave PINK1 expr mod -0.4%, TRPML1 ag -0.1, TRPML1 blocker -1, D2 agonist -1.0 and Six1-Eya2 inh 6.
Screening CCOC(=O)CN(C(=O)COc1nc(-c2ccccc2)cc(C)c1C#N)c1ccc(C)cc1 returned PINK1 expr mod 0.3%, TRPML1 ag 1.4, TRPML1 blocker 25, D2 agonist -4.8 and Six1-Eya2 inh -2.
For Cc1ccc(Cl)cc1N1CCN(Cc2cc(=O)n3ccsc3n2)CC1 the results were PINK1 expr mod 0.2%, TRPML1 ag 1.3, TRPML1 blocker -5, CtBP-E1A blk -6, D2 agonist -6.3 and Six1-Eya2 inh 8.
`CCCN(CCC)CCNC(=O)c1cn(C)c(=O)c2c1c1ccccc1n2C` gave PINK1 expr mod -0.7%, TRPML1 ag 0.8, TRPML1 blocker 28, CtBP-E1A blk 1, D2 agonist -1.2 and Six1-Eya2 inh -5.
CC1=C(OC(=O)c2ccccc2)C(C)(C)C(c2ccc(Br)cc2)OC1=O (centres undefined) was read as PINK1 expr mod 3.8%, TRPML1 ag 0.7, TRPML1 blocker 37, CtBP-E1A blk 3, D2 agonist -1.4 and Six1-Eya2 inh 7.
O=C1CCCc2nc(N3CCN(C(=O)c4ccco4)CC3)ncc21 was read as PINK1 expr mod 0.7%, TRPML1 ag 1.9, TRPML1 blocker -11, CtBP-E1A blk 12, D2 agonist -0.6 and Six1-Eya2 inh 5.
For COc1ccc(C(C2C(=O)CC(C)(C)CC2=O)C2C(=O)CC(C)(C)CC2=O)cc1CO the results were PINK1 expr mod -1.2%, TRPML1 ag 1.9, TRPML1 blocker -15, CtBP-E1A blk 3, D2 agonist 1.1 and Six1-Eya2 inh 8.
`CN1CCN(S(=O)(=O)c2ccc(N(C)Cc3cccc(F)c3)nc2)CC1` gave PINK1 expr mod 0.7%, TRPML1 ag -0.8, TRPML1 blocker -5, D2 agonist -2.8 and Six1-Eya2 inh -2.
CCCOc1ccc(Nc2cc(C)nc(C)n2)cc1 was read as PINK1 expr mod 0.9%, TRPML1 ag 0.2 and TRPML1 blocker 4.
`CCCCCOC(=O)CC(C(=O)OCCCCC)N1CCCCC1` (centres undefined) gave PINK1 expr mod 0.4%, TRPML1 ag 0.6, TRPML1 blocker -1, CtBP-E1A blk 24, D2 agonist -3.3 and Six1-Eya2 inh 34.
CC(=O)NS(=O)(=O)c1ccc(NC(=O)c2ccc3c(c2)OCO3)cc1 was read as PINK1 expr mod 3.1%, TRPML1 ag 1.0, TRPML1 blocker 8, CtBP-E1A blk -15, D2 agonist -2.4 and Six1-Eya2 inh -6.
Screening CC(=O)Nc1cccc(NC(=O)c2cc(-c3cccnc3)nc3ccc(Br)cc23)c1 returned PINK1 expr mod -2.1%[38.3 µM], TRPML1 ag 0.2, TRPML1 blocker 13, CtBP-E1A blk -7, D2 agonist -4.2 and Six1-Eya2 inh -6.
Screening O=C(c1ccccc1)C(O)(Cc1ccccc1)c1ccccc1 (centres undefined) returned PINK1 expr mod inconclusive, TRPML1 ag 0.2, TRPML1 blocker 3, CtBP-E1A blk -2, D2 agonist -2.0 and Six1-Eya2 inh 11.
Screening COc1ccc(C)cc1S(=O)(=O)NC1CCCCC1C (centres undefined) returned PINK1 expr mod 0.0%, TRPML1 ag -1.7, TRPML1 blocker -9, CtBP-E1A blk 2, D2 agonist -1.3 and Six1-Eya2 inh 5.
For CN(C)C(=O)c1ccc(NC(=O)c2ccc(-c3ccc(Cl)cc3)o2)cc1 the results were PINK1 expr mod -1.4%, TRPML1 ag -0.8, TRPML1 blocker 6, CtBP-E1A blk 25, D2 agonist 1.9 and Six1-Eya2 inh -15.
For CCCS(=O)(=O)NC(=O)C1(C)CCN(C(=O)c2oc3ccccc3c2C)C1 (centres undefined) the results were PINK1 expr mod 2.1%, TRPML1 ag -0.1, CtBP-E1A blk 0, D2 agonist -3.8 and Six1-Eya2 inh 3.
O=C(NCCn1ccc2ccccc21)c1ccc2c(c1)OCO2 was read as PINK1 expr mod 0.2%, TRPML1 ag 0.3, TRPML1 blocker -11, CtBP-E1A blk 7, D2 agonist -1.3 and Six1-Eya2 inh 0.
CN(C)C(=N)c1n[nH]nc1SCc1ccc(Cl)c(Cl)c1 was read as PINK1 expr mod -0.2%, TRPML1 ag 0.3, TRPML1 blocker -19, CtBP-E1A blk 10, D2 agonist -2.5 and Six1-Eya2 inh 19.
Cc1ccc(-c2nc3sccn3c2Nc2ccc(C)c(C)c2)cc1 was read as PINK1 expr mod 0.5%, TRPML1 ag 3.5 and TRPML1 blocker 81.
`COc1cccc2cc(-c3nc(Cl)c4c5c(sc4n3)CC(C)CC5)c(=O)oc12` (centres undefined) gave PINK1 expr mod inconclusive, TRPML1 ag -0.5 and TRPML1 blocker -8.
N#Cc1ccc(Cl)cc1NC(=O)COC(=O)[C@H](CCC(N)=O)NC(=O)c1ccc(F)cc1 was read as PINK1 expr mod 0.6%, TRPML1 ag -0.6, TRPML1 blocker -9, CtBP-E1A blk -14, D2 agonist -2.4 and Six1-Eya2 inh -4.
`CC(C)(C)c1csc(NC(=O)CCc2ccccc2)n1` gave PINK1 expr mod 8.4%, TRPML1 ag 1.4, TRPML1 blocker 41, CtBP-E1A blk 1, D2 agonist -2.1 and Six1-Eya2 inh 6.
For CCCCN1C(=O)C(CC(=O)NCc2cccs2)CC(C(=O)N(C(C)C)C(C)C)=C1C (centres undefined) the results were PINK1 expr mod -1.1%, TRPML1 ag -0.2, TRPML1 blocker 0, CtBP-E1A blk 4, D2 agonist -2.2 and Six1-Eya2 inh 2.

Among those listed so far, 2 have bromine.
CC1=C(OC(=O)c2ccccc2)C(C)(C)C(c2ccc(Br)cc2)OC1=O (centres undefined) was read as PINK1 expr mod 3.8%, TRPML1 ag 0.7, TRPML1 blocker 37, CtBP-E1A blk 3, D2 agonist -1.4 and Six1-Eya2 inh 7.
Screening CC(=O)Nc1cccc(NC(=O)c2cc(-c3cccnc3)nc3ccc(Br)cc23)c1 returned PINK1 expr mod -2.1%[38.3 µM], TRPML1 ag 0.2, TRPML1 blocker 13, CtBP-E1A blk -7, D2 agonist -4.2 and Six1-Eya2 inh -6.
